# Source: PubChem BioAssay (ICCB-Longwood Screening Facility, Harvard Medical School)
# Ba CapD inh: Bacillus anthracis CapD inhibitors, primary screen, biochemical, fluorescence intensity; CapD gamma-glutamyltranspeptidase (Bacillus anthracis Ames Ancestor); purified CapD enzyme, fluorescence intensity read-out; hits give low values; some hits fall short of the stated cut; z-score (concentration not given with the values); 0.23% of 140,000 active; AID 492967, 2010;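 active means z-score under -4 in either of two replicates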;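 further: stock transfer was 100 nL into about 40 µL; score is relative to mean and spread of the plate; one replicate is shown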
# AID504770: growth inhibition of E. coli YBA685, primary screen, V. cholerae RctB inhibitors | z-score (concentration not given with the values) | 0.27% of 130,000 active | AID 504770, 2011 | E. coli YBA685 rctB-dependent plasmid, OD600 growth, 3 h; hits give low values;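 active means z-score under -2 on both plates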;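 further: wells of about 30 µL received 100 nL stock; score is relative to mean and SD of the test wells; the first replicate is given; strong numbers were not always called active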
# * hit, by the source's call; x = no result given.
SMILES,Ba CapD inh,AID504770
COc1ccc(-c2nn(C)c(=O)c3ccccc23)cc1CNC(=O)c1ccco1,0.32,-0.05
FC(F)(F)c1cc(Oc2ccc(Cl)cc2)nc(-c2ccccn2)n1,-0.31,x
Cc1ccc(CN2C3CCCC2CC(NC(=O)Nc2ccc(C#N)cc2)C3)cc1 (stereo not drawn),x,0.05
Cn1cccc1C1=C(C#N)C(c2ccc(C#N)cc2)C(C#N)=C(N)O1 (stereo not drawn),-1.5,-1.2
O=c1[nH][nH]c(=S)n1CCc1ccccc1,x,-0.55
CN1C(=O)N(C)C2(c3ccccc3)NNC(N)=NC12c1ccccc1 (stereo not drawn),-0.32,x
COc1ccc(CSc2nc3ccccc3n2CCC#N)cc1F,x,-0.1
O=C(OCC(F)F)N1CCN(C(c2ccccc2)c2ccc(Cl)cc2)CC1 (stereo not drawn),-1.2,x
O=C(O)c1ccc2c(c1)CCCN2,2.5,0.75
O=C1NC(c2ccccc2F)Nc2sc3c(c21)CCCC3 (stereo not drawn),-0.41,x
O=C(O)CC1OC(=O)c2cc3c(cc21)C(=O)OC3CC(=O)O (stereo not drawn),0.19,-0.3
CN(C)c1nc(Oc2ccc(=O)[nH]n2)nc(N2CCCCC2)n1,-0.03,0.3
O=C1NC(=O)C(Cc2ccc(C(=O)O)cc2)S1 (stereo not drawn),-0.81,-0.8
COC(=O)C1=C(C)NC2=C(C(=O)CC(c3ccc(OC)cc3)C2)C1c1cc(Br)c(O)c(OC)c1 (stereo not drawn),10,x
C=CCNC(=O)CC1Nc2ccccc2NC1=O (stereo not drawn),36,-0.9
CSc1ccc(Oc2cc(F)ccc2C#N)cc1,-0.28,-0.75
COc1ccc2c(c1)=C(c1sc(=S)[nH]c1O)C(=O)N=2,-1.9,2.7
CC1CCCC(C)N1C(=O)c1ccc(NC(=O)C(O)(c2ccccc2)c2ccccc2)cc1 (stereo not drawn),-1.1,0.65
COc1ccc(CCNc2cc3c(nn2)Oc2ccccc2N3C)cc1OC,18,-1.3
COC(=O)c1ccccc1NC(=O)c1ccc2c(c1)CC(C)O2 (stereo not drawn),19,-0.45
Cc1cc(C)cc(NC(=S)NC2CCCCC2)c1,0.32,-0.45
CSc1nc2cc(Cl)c(Cl)cc2[nH]1,-0.11,-0.25
COc1cc(OC)nc(C(c2ccccc2)N2CCN(C(=O)c3cc(OC)c(OC)c(OC)c3)CC2)n1 (stereo not drawn),-0.4,x
O=S(=O)(NC1CCN(Cc2ccccc2)C1)c1ccccc1F (stereo not drawn),0.22,x
Cc1ccc(C2SCC(=O)N2Cc2cn3ccsc3n2)o1 (stereo not drawn),x,0.05
COC(=O)CCC/C=C1/SCC(NC(=O)c2ccccc2)C1=O (stereo not drawn),-0.45,x
CC(=O)Nc1c(C(=O)c2ccc(Cl)cc2)sc2nc(C)cc(C)c12,1.4,-0.1
NS(=O)(=O)c1ccc(CCNc2ncnc3c2c(-c2ccccc2)cn3-c2cccc(Cl)c2)cc1,0.16,x
COC(=O)c1sc2cc(Cl)ccc2c1O,23,x
CC(C)(C)c1ccc(C(=O)Nc2c3c(nn2-c2cccc(Cl)c2)CS(=O)C3)cc1 (stereo not drawn),-0.45,0.6
COc1cccc(NCc2nnc(-c3ccccc3)o2)c1,-0.39,-0.05
COC(=O)c1ccc(/C=N/NC(=O)COc2ccc(Cl)cc2C)cc1,1.7,x
CCOC(=O)c1c(NC(=O)C2=CC(c3cccs3)=NS(=O)(=O)N2C)sc(C)c1C,-0.17,1.9
O=C(CCCn1c(SCC(=O)Nc2cccc(C(F)(F)F)c2)nc2ccccc2c1=O)NCc1ccco1,-0.39,x
O=C(O)COc1ccc(/C=C2\COc3ccccc3C2=O)cc1,x,1.6
COc1cc(C(=O)c2cc(Cl)ccc2N)ccc1O,-0.98,x
C=CCN1C(=O)/C(=C/c2cc(C)n(CCOC)c2C)C(=O)NC1=S,71,-0.2
O=c1cc(-c2ccccc2)c2cc3c(cc2[nH]1)OCCO3,x,-0.95
Cc1ccnc(N2C(=O)CCC2=O)c1,-0.42,-0.8
CCN(CC)S(=O)(=O)c1ccc(-c2cn3cc(C)ccc3n2)cc1,45,x
COc1ccc(N2CCN(C(=O)c3nn(-c4ccccc4)nc3C)CC2)cc1,x,-1.9
CN(Cc1ccccc1)C(=O)c1cc(-c2ccccc2O)no1,-1.5,-1.8
CN(C)/C=N/c1c(C#N)cnn1-c1ccc(F)c(Cl)c1,-0.46,x
N#Cc1c(N)nc(SCC(=O)c2ccc([N+](=O)[O-])cc2)c(C#N)c1-c1ccccc1,0.045,x
NC(=O)CSc1nc(-c2ccccc2)cc(-c2ccccc2)n1,-0.29,x
COc1ccc(C2C=C(c3ccc(C)cc3)NC(=S)N2)cc1 (stereo not drawn),2.5,x
CC1=CC(=O)C(N(C)C2CCS(=O)(=O)C2)=CC1=O (stereo not drawn),x,1.8
COc1cc(C(=O)NCc2nnc(SCC(=O)Nc3cc(C)on3)o2)cc(OC)c1OC,x,0.5
O=S(=O)(c1ccc(N2CCOCC2)nc1)N(Cc1ccccn1)Cc1ccccn1,2,-0.3
O=C(CSc1ncn[nH]1)CSc1ncn[nH]1,x,-0.65
CC(C)(C)C(=O)Nc1nnc(SCc2ccc(Cl)cc2Cl)s1,-0.15,0.05
N#Cc1ccccc1Nc1ccnc(C(F)(F)F)c1,2.7,2
CN(CCO)c1nc(N)c2c(N)nc3c(c2c1C#N)CC(=O)N3C1CCCC1,x,-0.45
COC(=O)Cc1cccc2ccccc12,0.06,-1.1
O=C(COC(=O)c1ccc(Cl)cc1)NC1CCS(=O)(=O)C1 (stereo not drawn),x,-0.55
Cc1ccc(SCc2cn3c(C)csc3n2)cc1,0.7,0.95
CCN/C=C(\C#N)S(=O)(=O)c1ccc(Br)cc1,0.07,1.3
O=C(c1ccc(F)cc1)N1CCN(c2cc(N3CCCCC3)c(F)cc2[N+](=O)[O-])CC1,-1,x
CCCOC(=O)C(N)c1ccccc1 (stereo not drawn),x,-0.55
Cc1ccc(N2C(=O)N(CC(=O)N3CCC(C)CC3)c3ccccc3S2(=O)=O)cc1,0.12,1
# Later entries:
SMILES,Ba CapD inh,AID504770
Clc1ccc(-c2cncn2N2CCCCC2)cc1,0.08,0
COc1ccc(NC(=O)c2ccc(OS(=O)(=O)N(C)C)cc2)cc1,0.48,x
Cc1cccc(C(=O)OCC(=O)NCc2ccccc2Cl)c1O,0.17,1.8
CC1=C(/C=C/C(C)=N\NC(=O)c2ccncc2)C(C)(C)CCC1,-1.9,1.4
CC1=C(C(=O)Nc2ccc(F)cc2)C(c2ccc(F)cc2)C2=C(CCCC2=O)N1 (stereo not drawn),24,-0.5
Nc1ccccc1-c1nnc(SCc2ccccc2)[nH]c1=O,-1.1,1.8
CCOc1cccc2cc(-c3nnc(Nc4ccc(Cl)cc4Cl)s3)c(=O)oc12,-0.58,x
CC(C)(C)c1nnc2sc(SCC(=O)NCc3ccco3)nn2c1=O,x,0.3
CCC(=O)Nc1sc2c(c1C(=O)Nc1cccc3ccccc13)CCC2,0.54,x
COc1ccc(C(=O)NCCSc2ccccc2C)cc1,-0.21,-0.45
Cc1sc(-n2c(C)cc(/C=C(\C#N)C(=O)NCc3ccco3)c2C)c(C#N)c1C,x,1.7
CCOC(=O)c1ccc(Nc2nc3ccccc3n3cnnc23)cc1,2.7,-1.5
S=C1N[C@H]2CCCC[C@@H]2N1,0.79,0.8
COC(=O)c1ccc(NC(=O)CSC2=NC(=O)CC(=O)N2)cc1,-0.21,-0.6
Cc1ccc(NS(=O)(=O)c2ccccc2)c(NS(=O)(=O)c2ccccc2)c1,-0.3,1.4

# Four records picked at random from the list so far, as already listed:
SMILES,Ba CapD inh,AID504770
CC1=C(C(=O)Nc2ccc(F)cc2)C(c2ccc(F)cc2)C2=C(CCCC2=O)N1 (stereo not drawn),24,-0.5
S=C1N[C@H]2CCCC[C@@H]2N1,0.79,0.8
COC(=O)c1ccc(NC(=O)CSC2=NC(=O)CC(=O)N2)cc1,-0.21,-0.6
Clc1ccc(-c2cncn2N2CCCCC2)cc1,0.08,0

# One compound at a time, as listed above. Order of values: Ba CapD inh | AID504770
# S=C1N[C@H]2CCCC[C@@H]2N1 as listed: 0.79 | 0.8
# COc1ccc(NC(=O)c2ccc(OS(=O)(=O)N(C)C)cc2)cc1 as listed: 0.48 | x
# CC(C)(C)c1nnc2sc(SCC(=O)NCc3ccco3)nn2c1=O as listed: x | 0.3
# Nc1ccccc1-c1nnc(SCc2ccccc2)[nH]c1=O as listed: -1.1 | 1.8
# CC1=C(C(=O)Nc2ccc(F)cc2)C(c2ccc(F)cc2)C2=C(CCCC2=O)N1 (stereo not drawn) as listed: 24 | -0.5

# The listing continues:
SMILES,Ba CapD inh,AID504770
Cc1ccc(N=Cc2ccc3c(c2)OCO3)c(Br)c1,-1.2,-0.6
O=C(c1ccc2c(c1)OCO2)c1cc2ccc(O)cc2oc1=O,-3.9,-0.3
CC1CN(CC(=O)Nc2ccc(S(N)(=O)=O)cc2)CC(C)O1 (stereo not drawn),0.16,-0.95
O=C(O)c1cc2c(s1)CS(=O)(=O)C2,-3.9*,1.5
Nc1c(C(=O)NC2CC2)sc2nc(-c3ccncc3)ccc12,-1.7,-0.85
O=C(c1cn2c(n1)sc1ccccc12)N1CCOCC1,-0.36,x
O=C(O)CCN1CCN(c2cccc(Cl)c2)CC1,x,-0.9
O=CN1CCN(C(=O)COCc2cc3cccc4c3n(c2=O)CCC4)CC1,0.6,x
Cc1cccc2nc(CSCc3ccco3)cn12,-0.12,-0.15
O=C(Cc1csc(Nc2nc(=S)[nH]c3ccccc23)n1)NCc1cccc(Cl)c1,1.8,0.05
Cc1ccc(C(=O)O)cc1Nc1nc2ccccc2n2cnnc12,-2,-0.75
O=C1CCCN1c1ccc(S(=O)(=O)Nc2noc3ccccc23)cc1,-0.4,1.1
C=CCN1C(=O)c2ccccc2C1C(=O)NCc1cccnc1 (stereo not drawn),-0.32,-0.6
CCOC(=O)C1=C(C)OC(N)=C(C(=O)OCC)C1c1cccnc1 (stereo not drawn),0.25,-0.25
CSc1nc(OC(=O)N(C)C)cc(-c2ccccc2)n1,-0.31,1.7
Cc1[nH]c2ccc(-c3nnc(SCC(=O)N4CCc5ccccc54)o3)cc2c1C,x,0.6
COc1ccc(/C=C2\C=C(c3ccccc3)N(c3ccc(C(C)(C)C)cc3)C2=O)cc1Br,-0.4,x
Cc1cc(C)nc(NS(=O)(=O)c2ccc(NC(=O)CCCOc3ccc(Cl)cc3)cc2)n1,-0.04,x
C=CCN1CCN(C(=O)C2CC2)CC1,0.66,0.9
CC(=O)c1ccc(N2CCN(C(=O)c3cc(C)c([N+](=O)[O-])c(C)c3)CC2)cc1,0.11,x
Oc1c(C(c2ccc(F)cc2)N2CCCCC2)ccc2cccnc12 (stereo not drawn),-0.88,-0.5
O=C(O)CC1(c2ccccc2)C(=O)c2ccccc2C1=O,0.23,1.6
CN(CCCc1ccccc1)CCc1ccccn1,-0.055,-0.5
O=S(=O)(Nc1cccc(-c2ccc(N3CCCCC3)nn2)c1)c1ccc2c(c1)OCCO2,-0.18,0.6
CC(C)=CC(=O)Nc1nc(C)c(C)s1,-1.8,0.45
CCOC(=O)C1=C(NN(C)c2ccccc2)C(=O)N(C)C1,-1.9,-0.65
O=C(NC1CC1)c1ccc2nc3[nH]c4ccccc4c3nc2c1,0.27,x
CCCCOc1ccc(C(=O)Oc2ccc(C#N)cc2)cc1,-0.29,x
C=CCn1c(N)c(-c2nc3ccccc3[nH]2)sc1=S,x,0.05
Cc1[nH]c(=O)[nH]c(=O)c1S(=O)(=O)NC1CCCCC1C (stereo not drawn),-0.64,2.3

# Next section, starting with the last 2 of the part before.
SMILES,Ba CapD inh,AID504770
C=CCn1c(N)c(-c2nc3ccccc3[nH]2)sc1=S,x,0.05
Cc1[nH]c(=O)[nH]c(=O)c1S(=O)(=O)NC1CCCCC1C (stereo not drawn),-0.64,2.3
CC1(C)Cc2nc(N3CCCC3)c(C#N)cc2CS1,66,1.1
Cc1ccc(C)n1Cc1cccs1,x,-0.15
c1cncc(-c2[nH]ncc2-c2ccncc2)c1,-0.2,x
CCC(CC)C(=O)N1c2cc(C)c(C)cc2C(=C2SC(C(=O)OC)=C(C(=O)OC)S2)C(=S)C1(C)C,-0.69,x
COc1cc(S(=O)(=O)N2CCN(c3ccccc3F)CC2)c(OC)cc1Cl,x,-0.5
Cn1c(=O)nc2n(-c3cccc(C(F)(F)F)c3)c3ccccc3cc-2c1=O,9.8,0.6
COC(=O)c1c(C)[nH]c(-c2csc(N)n2)c1C,x,-0.25
O=C(c1cccc(NS(=O)(=O)c2ccc(F)c(F)c2)c1)N1CCCCC1,0.12,-0.2
Clc1ccc2c(c1)N=C(SCc1c(Cl)cccc1Cl)CCS2,-0.45,x
N#CC1=C(SCC(=O)Nc2cccc(Cl)c2)NC(=O)C(C#N)C12CCCCC2 (stereo not drawn),-0.28,x
O=C(Nc1cccc(NC(=O)C2CC2)c1)C1CC1,0.16,0.5
CC1CCCCN1S(=O)(=O)c1ccc2c(c1)oc(=O)n2C (stereo not drawn),0.51,-1.9
CN(CC1CCCO1)S(=O)(=O)c1ccc(C(=O)N2CCOCC2)cc1 (stereo not drawn),x,0
O=[N+]([O-])c1c(NCCCO)cc(NCc2ccc3c(c2)OCO3)c2nonc12,-0.88,x
Cc1cc(C(=O)N/N=C/N(C)C)nn1-c1c(Cl)cc(Cl)cc1Cl,0.3,0.4
